# ClpP mod – qHTS Assay for Activators of ClpP | AID 651965, 2013 | Potency, µM (series often up to 57.5 µM), for inactives: at the top dose activity change, negative = active | ATP-dependent Clp protease proteolytic subunit (Bacillus subtilis (strain 168)), P80244 | 340,000 tested, 1.9% active | purified B. subtilis ClpP, FRET peptide cleavage, 20 min; active = well fitted falling curve with a large enough effect; inconclusive = small, poorly fitted or top-dose-only effect; inactive = no such curve, though single readings can be large or run the other way; also: potency is read from the fitted curve at half-maximal effect; the source files actives as falling curves though it sought activators and does not explain the sign; nearly all actives have a fitted effect of over 65% in size; many hits overshoot -100%
# Target sequence (P80244 whole entry, looked up): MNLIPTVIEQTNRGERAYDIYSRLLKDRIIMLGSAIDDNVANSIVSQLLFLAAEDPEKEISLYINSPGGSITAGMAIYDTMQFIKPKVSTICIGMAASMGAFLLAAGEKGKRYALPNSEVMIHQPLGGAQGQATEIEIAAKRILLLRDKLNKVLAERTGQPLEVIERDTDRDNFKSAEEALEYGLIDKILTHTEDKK
#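 Purified B. subtilis ClpP, 10 microg/mL final in Tris/HCl pH8 with KCl, BSA, glycerol and Tween-20, cleaved an Abz/nitrotyrosine-quenched decapeptide. Fluorescence (ex 320, em 430) was read at 0 and 20 min at room temperature. Delta was normalized to 5.8 microM ADEP and DMSO/no-enzyme controls.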
# Sfp PPTase inh – qHTS Assay for Inhibitors of Bacillus subtilis Sfp phosphopantetheinyl transferase (PPTase) | Potency, µM, inactives show max response, negative = inhibition, most hits filed as inhibitors | Biochemical Sfp PPTase activity, qHTS | 310,000 tested, 3.5% active | AID 1490, 2009 | 4'-phosphopantetheinyl transferase ffp (Bacillus subtilis), Q9F4F7; active = well fitted inhibition curve with a large enough effect; inconclusive = small, poorly fitted or top-dose-only effect, or another doubt; inactive = no such curve, though single readings can be large or run the other way;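 also: the enzyme is Sfp with the accession as filed and its product quenches rhodamine fluorescence; potency is read from the fitted curve at half-maximal effect; 0% = enzyme reaction without inhibitor and -100% = no enzyme wells; top concentration of the series not given in the record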
#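 Reaction rates are the 30-min fluorescence difference (ex 525, em 598 nm) in wells containing 15 nM Sfp, 5 uM rhodamine-CoA and 12.5 uM BHQ-2-YbbR at pH 7.6 with 10 mM MgCl2.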
# gsp antag – qHTS for Antagonists of gsp, the Etiologic Mutation Responsible for Fibrous Dysplasia/McCune-Albright Syndrome: qHTS | AID 624288, 2012 | gsp-mutant cells, cAMP HTRF, 30 min; control for the full effect not named in the record | Potency, µM (titrated, usually from 76.9 µM), for the others: at the highest dose activity change, negative = inhibition, usual class: inhibitors | 340,000 tested, 0.4% active; active = falling curve of any shape with a large fitted effect; inconclusive = falling curve, mostly with a smaller effect; inactive = flat or rising curve; cell line not stated here;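 also: intracellular cAMP measured with PDE inhibitor Ro 20-1724 present during compound exposure; potency is read from the fitted curve at half-maximal effect; % is scaled to controls: 0 for no effect and ±100 for the full control effect; nearly all actives have a fitted effect of over 65% in size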
#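 Cells, 2000/well, grown 16–24 h in DMEM 10% FBS with 0.5 mg/ml G418, then compounds plus […] (300 uM addition stock), 30 min at 37C. cAMP read by HTRF (cAMP-d2 and anti-cAMP antibody-K in lysis buffer) after 30 min RT.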
# gsp ag – qHTS for Agonist of gsp, the Etiologic Mutation Responsible for Fibrous Dysplasia/McCune-Albright Syndrome: qHTS | AID 624287, 2012 | gsp mutant cells, cAMP HTRF, 30 min; control for the full effect not named in the record | Potency, µM (series often up to 76.9 µM), inactives show at the top dose activation (cAMP increase), usual class: activators | 340,000 tested, 0.13% active; active = well fitted activation curve with a large enough effect; inconclusive = small, poorly fitted or top-dose-only effect, or another doubt; inactive = no such curve, though single readings can be large or run the other way; cell line not stated here;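 also: phosphodiesterase inhibitor Ro 20-1724 added with compounds to block cAMP breakdown; potency is read from the fitted curve at half-maximal effect; nearly all actives have a fitted effect of over 60% in size; about a fifth of the inactives were tested at one dose only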
#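 Cells in DMEM/10% FBS with G418 were pretreated with compounds in DMSO plus […] (300 uM stock) for 30 min at 37C. cAMP was measured by HTRF (cAMP-d2 plus anti-cAMP antibody-K) after 30 min at room temperature.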
# Menin-MLL FL inh – qHTS Assay for Inhibitors Targeting the Menin-MLL Interaction in MLL Related Leukemias: Competition With Fluorescein Labeled MLL-derived Peptide; Fluorescence polarization, fluorescein-MLL peptide displacement from menin; FP activity change, % at 61.4 µM; 290,000 tested, under 10 active; AID 1766, 2009; inconclusive = falling polarisation curve, or a change in total fluorescence; inactive = total fluorescence flat and polarisation flat or rising; no compound was filed as active; the % refers to the polarisation; negative = inhibition;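 also: % of control where 0% means no effect; inhibitors lower the polarisation; unlabelled MLL peptide was the positive control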
# TRPV1 PAM – HTS Assay for Compounds that Act as Potentiators of the Vanilloid Receptor 1; potentiation, % at 8.33 µM; AID 540277, 2011; 320,000 tested, 0.02% active; TRPV1-expressing cells, Fluo-8 calcium influx, capsaicin EC20 potentiation; host cell line not named in the record; control for the full effect not named in the record; active means potentiation above 80%; inconclusive means 30% to 80%; inactive means below 30%; also: 0% is about no effect
# Target sequence (Q8NER1 whole entry, looked up): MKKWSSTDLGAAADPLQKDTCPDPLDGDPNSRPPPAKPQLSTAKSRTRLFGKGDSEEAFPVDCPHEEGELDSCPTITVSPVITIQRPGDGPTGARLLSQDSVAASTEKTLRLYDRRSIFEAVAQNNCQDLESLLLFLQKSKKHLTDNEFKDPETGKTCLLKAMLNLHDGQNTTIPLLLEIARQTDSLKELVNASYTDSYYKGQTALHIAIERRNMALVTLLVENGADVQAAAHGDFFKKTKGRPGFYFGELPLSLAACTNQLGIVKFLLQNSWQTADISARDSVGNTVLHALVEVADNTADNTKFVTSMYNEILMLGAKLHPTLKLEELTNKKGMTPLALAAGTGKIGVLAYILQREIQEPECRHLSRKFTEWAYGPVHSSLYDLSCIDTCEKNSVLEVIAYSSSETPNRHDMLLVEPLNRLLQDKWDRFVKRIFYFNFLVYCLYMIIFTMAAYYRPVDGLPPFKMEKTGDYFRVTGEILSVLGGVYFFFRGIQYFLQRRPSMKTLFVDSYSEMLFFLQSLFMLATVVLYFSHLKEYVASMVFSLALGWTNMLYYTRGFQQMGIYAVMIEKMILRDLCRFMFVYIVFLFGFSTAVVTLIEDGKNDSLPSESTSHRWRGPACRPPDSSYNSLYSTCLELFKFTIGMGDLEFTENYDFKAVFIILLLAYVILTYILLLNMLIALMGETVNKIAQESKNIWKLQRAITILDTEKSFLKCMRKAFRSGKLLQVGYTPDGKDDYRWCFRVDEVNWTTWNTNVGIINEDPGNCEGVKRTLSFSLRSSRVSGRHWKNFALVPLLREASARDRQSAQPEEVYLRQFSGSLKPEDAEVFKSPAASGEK
#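 Fluo-8 calcium influx in TRPV1-expressing cells, kinetic read (ex 480/em 520 nm). Compound added and read 3 min for agonist activity, followed by capsaicin at EC20 final and 2 min further read for enhancement.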
# CtBP-E1A inh – qHTS Assay for Inhibitors of the CtBP/E1A Interaction; CtBP / adenovirus E1A interaction (AlphaScreen); AlphaScreen GST-E1A/His-CtBP binding, 1536-well; active compounds read low; control for the full effect not named in the record; activity change, % (concentration not given with the values); 340,000 tested, 0.49% active; in the data active means activity change below about -65%; inconclusive means about -30% to -65%; inactive means above about -30%; also: % is scaled to controls: 0 for no effect and ±100 for the full control effect
#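 Protein mix (5X: 125 nM each GST-E1A, His-CtBP) was incubated with pinned compound 2 h at 37 deg C in dark, in 50 mM Tris pH 8.0 buffer with 300 mM NaCl. Glutathione donor and nickel acceptor beads followed; AlphaScreen signal read after 1 h.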
# Starred values were filed as active, the others as inactive; ? = inconclusive; / = no result given; & = joins results of further samples; [ ] = dose if it differs, or a comment.
SMILES,ClpP mod,Sfp PPTase inh,gsp antag,gsp ag,Menin-MLL FL inh,TRPV1 PAM,CtBP-E1A inh
COc1ccc(C(=O)CSc2nc(C)cc(=O)[nH]2)cc1C,0.0%,1%,-4%,?,0.1,-3,2
O=C(Nc1cccc(-c2cccc(F)c2)c1)C1CCN(Cc2ccc(CO)o2)CC1,1.0%,-6%,15%,?,0.5,-11,-10
O=C(c1ccc(CS(=O)Cc2ccccc2Cl)o1)N1CCN(c2ccccc2)CC1 (stereo not given),-1.9%,/,/,-30%,/,/,2
CCOC(=O)c1nn(-c2cccc(C)c2)cc1C(=O)c1ccccc1,-0.8%,3%,-12%,0%,7.2,-6,-14
COc1ccc(C(=O)Nc2ccc(C(=O)N3CCCCC3)cc2)cc1OC,/,6%,3%,-7%[15.4 µM],1.7,-4,-10
CC(C)(C)OC(=O)[C@H](Cc1ccccc1)NC(=O)c1nc[nH]c1C(=O)NCc1ccccc1,0.8%,29%,7%,22%,-1.9,-8,-3
CC(O)[C@H]1CNC(=S)N1CCc1cccc(F)c1 (stereo not given in full),-0.8%,12%,3%,-32%[inhibitor],-2.0,-22,4
CC(C)(C)C(=O)NCC12C=CC(O1)C1C(=O)N(c3ccccc3)C(=O)C12 (stereo not given),-0.6%,-1%,5%,-40%[inhibitor],3.9,-25,12
COc1ccc(-c2nnc(SCC(=O)NCCc3ccc(S(N)(=O)=O)cc3)o2)cc1OC,-2.1%,12%,15%,3%,-0.9,5,-2
CS(=O)(=O)C1=NSC2=NC(=O)/C(=C\c3cccn3-c3ccc(Cl)cc3)C(=N)N21,-0.9%,?,-10%,13%[15.4 µM],15,-22,-14
COCCN(CC(=O)NCc1ccccc1)C(=O)CCC(=O)Nc1nccs1,-1.4%,17%,6%,?,0.0,-1,-2
CCCc1[nH]n(-c2nc3ccccc3s2)c(=O)c1C=NCCCN(CC)CC,/,19%,-2%,12%,-3.2,-1,-1
COc1ccc(CNC(=O)c2nc(S(=O)(=O)Cc3ccccc3)ncc2Cl)cc1,4.8%&-2.9%,-23%,?,-12%,/,27,/
O=C(COc1ccc(Cl)cc1Cl)N(Cc1ccco1)C1CCS(=O)(=O)C1 (stereo not given),0.7%,13%,-3%,9%,-1.9,?,10
Cc1c(C(N)=O)sc2nc(-c3ccccc3)cn12,-2.7%,7%,-2%,3%,1.9,-16,-12
COc1ccc(-c2ccc(/C=C3/C(=N)N4C=CSC4=NC3=O)o2)c([N+](=O)[O-])c1,-2.3%,-18%,-14%,-3%,-1.6,22,?
CCN1CCN(c2ccc(S(=O)(=O)N3CCCCC3)cc2NC(=O)c2ccc([N+](=O)[O-])s2)CC1,-1.8%,/,-4%,-2%[15.4 µM],/,-43,-2
Cc1ccc(S(=O)(=O)N2[C@@H](c3ccc(C(C)(C)C)cc3)C(C(=O)O)=CC[C@H]2c2cccc(Cl)c2)cc1,0.8%,/,-12%,/,/,/,-10
CC[C@]12c3[nH]c4cc(-c5ccco5)ccc4c3CCN1C(=O)[C@@H](CC(=O)NCCN1CCOCC1)C[C@@H]2C(=O)N1CCN(C(=O)c2ccco2)CC1,-14%,/,7%,/,/,/,2
CC(=O)Nc1ccc(NC(=O)CN(c2ccc(F)cc2)S(=O)(=O)c2ccc3c(c2)OCCO3)cc1,-1.4%,24%,-19%,24%,-1.4,12,-9
O=C(COC(=O)COc1ccccc1)NC1CCCC1,-2.0%,/,-7%,?,/,-6,/
N#Cc1c(C(F)(F)F)cc(-c2cccs2)nc1SCC(=O)O,-19%,-3%,-14%,-21%,-0.3,18,/
COc1cc(OC)c(S(=O)(=O)Nc2ccccc2C(=O)O)cc1S(=O)(=O)Nc1ccccc1C(=O)O,3.5%,7%,7%,6%,-7.9,4,1
COc1ccc(N2C(=O)CC(N3CCN(c4ccc(S(C)(=O)=O)cc4)CC3)C2=O)cc1 (stereo not given),-3.6%,15%,0%,-45%[inhibitor],1.8,10,-2
Cc1ccccc1NC(=O)c1cccc(S(=O)(=O)Nc2cccc(C(=O)O)c2)c1,-0.8%,-8%,-3%,10%[15.4 µM],-2.0,23,0

# In a second layout: results already given
# The line under a structure holds: ClpP mod | Sfp PPTase inh | gsp antag | gsp ag | Menin-MLL FL inh | TRPV1 PAM | CtBP-E1A inh
N#Cc1c(C(F)(F)F)cc(-c2cccs2)nc1SCC(=O)O
→ -19% | -3% | -14% | -21% | -0.3 | 18 | /
COc1cc(OC)c(S(=O)(=O)Nc2ccccc2C(=O)O)cc1S(=O)(=O)Nc1ccccc1C(=O)O
→ 3.5% | 7% | 7% | 6% | -7.9 | 4 | 1
COc1ccc(N2C(=O)CC(N3CCN(c4ccc(S(C)(=O)=O)cc4)CC3)C2=O)cc1 (stereo not given)
→ -3.6% | 15% | 0% | -45%[inhibitor] | 1.8 | 10 | -2
Cc1ccccc1NC(=O)c1cccc(S(=O)(=O)Nc2cccc(C(=O)O)c2)c1
→ -0.8% | -8% | -3% | 10%[15.4 µM] | -2.0 | 23 | 0

# Remaining list, next part:
SMILES,ClpP mod,Sfp PPTase inh,gsp antag,gsp ag,Menin-MLL FL inh,TRPV1 PAM,CtBP-E1A inh
O=C(NCc1ccco1)c1cc2nc(-c3cccs3)cc(C(F)(F)F)n2n1,35µM*,-20%,1%,16%,1.8,-13,-13
CC(C)CCOc1ccc(C(=O)C[N+]2(C)CCOCC2)cc1,-0.9%,-10%,-4%,-23%,-3.2,-10,0
CCOC(=O)c1csc(NC(=O)c2ccc(OC)c(OC)c2)n1,1.5%,-1%,12%,25%,0.5,11,3
O=c1c(/C=N/O)coc2ccc(Cl)cc12,/,-2%,-8%,5%,6.0,11,2
CC(=O)Nc1ccc(S(=O)(=O)N(C)CC(=O)OCC(=O)N2CCN(C(=O)c3ccco3)CC2)cc1,/,/,7%,19%[15.4 µM],/,6,4
CCOC(=O)c1c(-c2ccc(C)o2)csc1NC(=O)CSc1nnc(C)s1,-1.4%,22µM*,?,-28%,4.0,?,12
COc1cccc(NC(=O)Cn2c(CCC(=O)O)ccc2-c2ccccc2)c1,/,7%,-4%,-2%,-0.2,5,-3
COc1ccc(-c2[nH]ncc2CN(C)Cc2cc(C)[nH]n2)c(F)c1,/,-16%,16%,-4%,-0.3,-6,0
COc1ccc(/C=C2\C(=O)NCC(=O)N2Cc2ccccc2)cc1,-26%,2%,0%,-25%,-2.7,/,7
Brc1ccc(CNCCCSc2ncccn2)cc1,-1.7%,2%,12%,-24%,-3.8,13,12
O=C(N1CCOCC1)N(Cc1cccs1)C1CCCC1,-1.2%,16%,1%,-6%,2.3,8,0
CC1(C)NC(=O)N(CC(O)Cn2nnc3ccccc32)C1=O (stereo not given),1.0%,17%,3%,26%,1.2,7,0
Cc1cccn2cc(-c3ccc(S(=O)(=O)N4CCOCC4)cc3)nc12,3.2µM*,11%,-11%,-16%,-2.2,11,-4
O=C(Cc1ccc([N+](=O)[O-])cc1)N/N=C/c1ccco1,0.0%,14%,12%,7%,-0.8,-6,3
Cc1ccc2c(c1)c(N=NC(N)=O)c(O)n2C,/,-1%,-21%,5%[15.4 µM],3.9,6,-1
O=C(NCc1ccco1)c1sc2cccc(F)c2c1Cl,7.1%,?,-5%,33%,-2.4,12,-9
Nn1c(SCC(=O)NC(=O)NCc2ccccc2)nnc1C1CC1,0.2%,-24%,10%,-36%,1.2,11,14
CN(c1ccc(C(=O)NCCSC(C)(C)C)cc1)S(=O)(=O)c1ccccc1,/,10%,-2%,?,0.6,-12,2
Cc1cccc(NC(=O)C2CCCN(S(=O)(=O)c3c(C)nn(C)c3C)C2)n1 (stereo not given),1.2%,5%,-2%,-5%,0.6,7,2
CC1=Nc2nc(N3CCCCCC3)c(C#N)c3c4c(nc(c23)N1)N(c1ccc2ccccc2c1)C(=O)C4,-8.6%,/,-2%,?,/,/,/
O=C(Nc1ccc2c(c1)N(S(=O)(=O)c1cccs1)CCC2)c1c(F)cccc1Cl,-1.1%,/,-10%,7%,/,-10,-7
N#Cc1c(Cl)cccc1N1CCC(C(N)=O)CC1,2.5%,-7%,12%,-11%,4.3,6,5
O=C(N[C@H]1/C=C\[C@@H](O)CCCC1)OCc1ccccc1,2.2%,/,10%,/,/,/,1
C[C@@H]1CC=C[C@H]2[C@H]1C(=O)N(Cc1ccccc1)[C@H]2c1ccc(Br)cc1F,0.6%,-1%,-16%,/,-0.3,3,-4
CC(C)c1onc(C(=O)NC2CCCC2)c1[N+](=O)[O-],-1.4%,-11%,12%,-123%[inhibitor],0.8,-2,/
SMILES,ClpP mod,Sfp PPTase inh,gsp antag,gsp ag,Menin-MLL FL inh,TRPV1 PAM,CtBP-E1A inh
COc1ccc(CC(=O)Oc2ccccc2[N+](=O)[O-])cc1,-5.6%,12%,-1%,1%,1.9,-24,1
CCN(CC(=O)Nc1c(F)cccc1F)C(=O)c1cnc(C)cn1,1.2%,/,9%,-24%,/,-6,15
O=[N+]([O-])c1cccc(S(=O)(=O)NCc2ccncc2)c1,/,22%,0%,9%[15.4 µM],-0.3,-10,-8
CC(C)CCn1c(Oc2ccccc2Cl)nc2c1c(=O)n(C)c(=O)n2C,-0.6%,-12%,?,17%,0.0,-3,-4
O=C(O)CCC(=O)N1CCc2cc(S(=O)(=O)Nc3ccc4c(c3)OCCO4)ccc21,1.0%,0%,6%,-49%[inhibitor],-3.8,3,2
Cc1ccccc1OCCCC(=O)Nc1nccs1,0.4%,10%,2%,-47%[inhibitor],4.4,-4,7
c1ccc(-c2csc3ncnc(N4CCOCC4)c23)cc1,/,11%,-6%,-16%[15.4 µM],0.1,-8,7

# Screening results as filed in PubChem.
